Compound activity deposited in PubChem BioAssay by National Center for Advancing Translational Sciences (NCATS).
VDR inhibitor – Inhibitors of the vitamin D receptor (VDR): qHTS; Potency, µM, without a hit: max response, negative = inhibition, most hits filed as inhibitors; VDR-SRC2-3 peptide fluorescence polarization, 2 h; AID 504847, 2011; 400,000 tested, 0.93% active; active = well fitted inhibition curve with a large enough effect; inconclusive = small, poorly fitted or top-dose-only effect, or another doubt; inactive = no such curve, though single readings can be large or run the other way; note: series mostly up to about 120 µM
Target sequence (P11473 whole entry, looked up): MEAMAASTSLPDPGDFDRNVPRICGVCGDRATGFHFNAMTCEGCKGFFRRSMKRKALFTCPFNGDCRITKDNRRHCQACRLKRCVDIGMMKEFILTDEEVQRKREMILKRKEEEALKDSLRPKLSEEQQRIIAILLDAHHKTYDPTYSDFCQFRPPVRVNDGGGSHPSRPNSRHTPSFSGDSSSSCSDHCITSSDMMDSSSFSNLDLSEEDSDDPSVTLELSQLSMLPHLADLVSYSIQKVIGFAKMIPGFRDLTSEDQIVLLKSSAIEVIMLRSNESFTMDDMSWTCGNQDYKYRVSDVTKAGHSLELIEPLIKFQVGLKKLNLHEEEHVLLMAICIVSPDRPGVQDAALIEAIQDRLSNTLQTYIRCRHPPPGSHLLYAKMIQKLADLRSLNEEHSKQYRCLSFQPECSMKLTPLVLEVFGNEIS
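Inhibition of the VDR/SRC2-3 peptide interaction is quantified by fluorescence polarization. Compounds (23 nl, pintool) incubate with the reagents for 2 hours at ambient room temperature.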
An asterisk follows results filed as active; u = inconclusive. % is set by controls: 0 for no effect and ±100 for the full control effect; potency is the fitted concentration of half-maximal effect. The list is partial. The share of hits here may be higher or lower than overall.

SMILES	VDR inhibitor
COCCn1c(-c2ccc(OC)cc2)cnc1SCC(=O)Nc1cc(C)on1	-2%
CCc1cccc(C)c1NS(=O)(=O)c1c(C(=O)N2CCC(C)CC2)c(C)n(C)c1C	-4%
Cc1c(NC(=O)Nc2ccc(Cl)c(Cl)c2)sc(=S)n1C	u
Oc1cccc(C(=S)N2CCC(Cc3ccccc3)CC2)c1	u
COc1ccc(NC2=NCCC(=O)N2Cc2cccs2)cc1	3%
CN(CC(O)COc1c(F)cc(Br)cc1F)C1CCCCC1 (centres undefined)	-3%
O=C(CCc1ccccc1)Nc1cc2c(cc1Cl)OCCO2	-9%
O=C(OCC(=O)c1ccc(Cl)s1)c1ccc2ccccc2n1	6%
O=C(CS(=O)(=O)c1c[nH]c2ccccc12)N1CCCCCC1	-2%
Cc1ccc(S(=O)(=O)NCCC(=O)NNc2c(F)c(F)cc(F)c2F)cc1	-21%
CC(=C/c1ccccc1)/C=N/NC(=O)c1nnn(-c2nonc2N)c1CN1CCC(C)CC1	-16%
CCOC(=O)C(CC)/C(C)=N/NC(=O)c1ccc([N+](=O)[O-])cc1 (centres undefined)	13%
C/C(=N\NC(=O)c1nn(C)cc1Br)c1cccc(NC(=O)C(C)(C)C)c1	0%
CC1CC(C)CN(C(=O)c2cc(-c3ccncc3)nc3ccccc23)C1 (centres undefined)	-14%
Cn1nc(-c2ccc(N3CCOCC3)c(NS(=O)(=O)c3ccccc3)c2)c2ccccc2c1=O	1%
COC(=O)CSc1nc2cc(Cl)ccc2c(=O)n1C1CCCC1	-3%
O=C(NCCc1ccccc1)c1ccc2[nH]c(=O)c(=O)[nH]c2c1	-5%
CC(=O)Nc1ccc(S(=O)(=O)N(C)c2ccc(O)cc2)cc1	18%
Cc1ccccc1C(=O)NNC(=O)Cc1cccc2ccccc12	-10%
O=C1CCCCN1CC(=O)N1CCCC(Nc2ccc(F)cc2)C1 (centres undefined)	-6%
CCOc1ccc(CN(C(=O)c2oc3ccccc3c2C)C2CCS(=O)(=O)C2)cc1 (centres undefined)	-2%
Cc1ccc(C)c(N2CCN(c3ccc4cc(S(=O)(=O)N5CCCCC5)ccc4n3)CC2)c1	u
Cc1cc(C)nc(SCC(CSc2nc(C)cc(C)n2)C(=O)O)n1	-18%
COc1ccc(-c2noc(C(C)NS(=O)(=O)c3ccc(NC(C)=O)cc3)n2)cc1 (centres undefined)	-2%
CC1(C(=O)NC2CCCCC2)Cc2ccccc2C(=O)N1Cc1ccccc1Cl (centres undefined)	4%
COC(=O)c1cccc(CN2C(=O)SC(Nc3ccc(Cl)cc3)C2=O)c1 (centres undefined)	-2%
CC1CCN(C(=O)CSc2n[nH]c(-c3ccc(F)cc3)n2)CC1	9%
Cc1cc2n(n1)CCC(=O)N2Cc1ccc(C(=O)Nc2cc(Cl)ccc2C)cc1	4%
O=C(c1ccc(Br)cc1)N(Cc1ccco1)C1CCS(=O)(=O)C1 (centres undefined)	-1%
CC1Cc2ccccc2N1C(=S)NC(=O)c1cccc(Br)c1 (centres undefined)	-19%
COc1cc2c(cc1OC)/C(=C/c1ccc(Cl)cc1)C(=O)OC2	-8%
COc1ccc(C2NC(Cc3ccccc3)(C(=O)O)C3C(=O)N(c4ccccc4OC)C(=O)C23)cc1 (centres undefined)	-6%
CN1CCN(C(=O)CCCN2C(=O)/C(=C/c3ccccc3)SC2=S)CC1	7%
CC(=O)N1CCc2cc(S(=O)(=O)CCC(=O)N3CCN(C(=O)c4ccco4)CC3)ccc21	-11%
CCOc1ccc(Nc2nc3cc(S(=O)(=O)CC)ccc3o2)cc1	17%
CCC(CC)C(=O)Nc1ccc(Sc2ccc([N+](=O)[O-])cc2)cc1	6%
O=C(COC(=O)/C=C/c1ccc([N+](=O)[O-])cc1)NCc1ccc2c(c1)OCO2	5%
COc1ccc(-c2cc(C(F)(F)F)n3nc(C(=O)OC(C)C)cc3n2)cc1	13%
CC12CCC=CC1C(c1cccc(Br)c1)N(Cc1ccccc1)C2=O (centres undefined)	u
CC1(C)Cc2c(sc(/N=C/N3CCCCC3)c2C#N)C(C)(C)N1	-2%
O=C(CN1C(=O)/C(=C/c2ccccc2)Sc2ccccc21)NCCCN1CCOCC1	-24%
COc1ccc(-c2csc(NC(=O)C3CCCO3)n2)cc1 (centres undefined)	12%
COc1ccc2[nH]c(=O)c(CN(Cc3ccc(C)cc3)Cc3nnnn3CC3CCCO3)cc2c1 (centres undefined)	12%
CN1C(=S)SC(N2OC3C(=O)N(c4ccccc4)C(=O)C3C2c2ccc(Cl)cc2)C1(C)C (centres undefined)	12%
Cc1ccc(CNC(=O)c2cccc(S(C)(=O)=O)c2)cc1	0%
Cc1ccc(C(C)NC(=O)c2cc(C)oc2C)cc1 (centres undefined)	8%
c1coc(C2Nc3ccccc3C3OCCC23)c1 (centres undefined)	-9%
COc1ccc(/C=C/C(=O)OCc2csc(-c3ccccc3)n2)cc1OC	-6%
COc1cccc(NC(=O)C2CC(=O)N(C)C(=Nc3cccc(F)c3)S2)c1 (centres undefined)	2%
CN=C1S/C(=C\c2cccn2-c2cccc(Br)c2)C(=O)N1C	2%
O=S1(=O)CCO[C@H]2Cc3ccccc3[C@H]2N1Cc1ccccc1	-14%
COc1ccc(-c2nc(C)c(CCNS(=O)(=O)c3ccc(F)cc3)s2)cc1OC	16%
Cc1noc(C)c1CSCC(=O)Nc1ccc(S(=O)(=O)C(F)F)cc1	16%
COc1cccc(C(=O)NCC(c2ccc3c(c2)OCO3)N2CCN(c3ccc(F)cc3)CC2)c1 (centres undefined)	-13%
CC1(C(=O)NNC(=S)NCC2CCCO2)CC1(Cl)Cl (centres undefined)	-3%
Cc1cccc(N=Nc2c(C)[nH]n(-c3ccccc3)c2=O)c1	-24%
CCOC(=O)/C=c1/s/c(=C/c2ccccc2OC)c(=O)n1CC(=O)N1CCOCC1	10%
O=C(NC(=S)Nc1ccc2nc[nH]c2c1)c1ccccc1	3%
O=C1ON=C(c2ccccc2)/C1=C/c1ccc(-c2ccccc2[N+](=O)[O-])o1	35µM*
Cc1nn(-c2ccccc2)c(C)c1/C=N/NC(=O)CSc1nc2ccccc2c(=O)n1-c1ccccc1	-21%

A second format for some results above.
molecule | VDR inhibitor
O=C(CN1C(=O)/C(=C/c2ccccc2)Sc2ccccc21)NCCCN1CCOCC1 | -24%
COc1ccc(-c2csc(NC(=O)C3CCCO3)n2)cc1 (centres undefined) | 12%
COc1ccc2[nH]c(=O)c(CN(Cc3ccc(C)cc3)Cc3nnnn3CC3CCCO3)cc2c1 (centres undefined) | 12%
CN1C(=S)SC(N2OC3C(=O)N(c4ccccc4)C(=O)C3C2c2ccc(Cl)cc2)C1(C)C (centres undefined) | 12%
Cc1ccc(CNC(=O)c2cccc(S(C)(=O)=O)c2)cc1 | 0%
Cc1ccc(C(C)NC(=O)c2cc(C)oc2C)cc1 (centres undefined) | 8%
c1coc(C2Nc3ccccc3C3OCCC23)c1 (centres undefined) | -9%
COc1ccc(/C=C/C(=O)OCc2csc(-c3ccccc3)n2)cc1OC | -6%
COc1cccc(NC(=O)C2CC(=O)N(C)C(=Nc3cccc(F)c3)S2)c1 (centres undefined) | 2%
CN=C1S/C(=C\c2cccn2-c2cccc(Br)c2)C(=O)N1C | 2%
O=S1(=O)CCO[C@H]2Cc3ccccc3[C@H]2N1Cc1ccccc1 | -14%
COc1ccc(-c2nc(C)c(CCNS(=O)(=O)c3ccc(F)cc3)s2)cc1OC | 16%
Cc1noc(C)c1CSCC(=O)Nc1ccc(S(=O)(=O)C(F)F)cc1 | 16%
COc1cccc(C(=O)NCC(c2ccc3c(c2)OCO3)N2CCN(c3ccc(F)cc3)CC2)c1 (centres undefined) | -13%
CC1(C(=O)NNC(=S)NCC2CCCO2)CC1(Cl)Cl (centres undefined) | -3%
Cc1cccc(N=Nc2c(C)[nH]n(-c3ccccc3)c2=O)c1 | -24%
CCOC(=O)/C=c1/s/c(=C/c2ccccc2OC)c(=O)n1CC(=O)N1CCOCC1 | 10%

The listing continues.
SMILES	VDR inhibitor
CCOC(=O)c1ccc(NCn2c(=O)oc3ccccc32)cc1	-4%
O=C(Nc1ccc(Cl)cc1Cl)c1ccc(-c2ccccc2)cc1	-7%
Cc1cc(Cl)ccc1C(=O)C1CCCN(C(=O)c2cncs2)C1 (centres undefined)	-26%
Cc1nc2cnc(N3CCNCC3)nc2n(CCc2ccccc2)c1=O	-11%
CCOC(=O)c1sc(NN=C(C(=O)OC)C(=O)OC)c(C(=O)OCC)c1C	-7%
COc1ccc(NC(=O)CSc2nc3c([nH]c4ccccc43)c(=O)n2-c2ccccc2)c(OC)c1	9%
CCN(CC)C(=O)c1sc2nc(N3CCOCC3)c3c(c2c1N)CCCC3	-11%
C=CCn1c(SCC(=O)N2CCOCC2)nc2sc(CC)cc2c1=O	-7%
O=C(/C=C/c1ccc2c(c1)S(=O)(=O)N(Cc1ccccc1)[C@H]2CC(=O)N1CCOCC1)N1CCOCC1	-7%
O=C(Nc1ccccc1C(=O)NCc1ccccc1)C1=CSCCO1	-25%
C#CCOCCOCCOCCNc1nc(N2CCN(C(=O)[C@H](C)n3cc(CCCN=C(N)N)nn3)CC2)nc(N2CCN(C(=O)[C@H](C)n3cc(CCCN=C(N)N)nn3)CC2)n1	0%
CC(=O)NCc1nc2cccnc2n1Cc1ccccc1	5%
COc1ccc(C(C)NC(=O)C2CCCC2)cc1 (centres undefined)	8%
CC1(C)Cc2c(C#N)c(N3CCN(C(=O)c4ccccc4Cl)CC3)nc(-c3ccco3)c2CS1	-19%
C=CCOc1cccc(C2C(C(=O)c3ccco3)=C(O)C(=O)N2CCN2CCOCC2)c1 (centres undefined)	1%
Cc1onc(-c2ccccc2Cl)c1C(=O)NCCn1ccc2ccccc21	17%
COC(=O)c1cn(NC(=O)/C=C/c2ccc(OC)c(OC)c2)c(=O)c2ccccc12	-1%
CCNC(=O)c1sc2cc(C)ccc2c1Cl	5%
O=C(c1cccc(S(=O)(=O)N2CCCCC2)c1)N1CCCCC1	-10%
O=C(NCC1CC1)Nc1ccccc1	1%
CCN(CC)c1ccc(/C=N/n2c(-c3ccccc3Br)n[nH]c2=S)cc1	-11%
COc1cc(SC)ccc1C(=O)Nc1nc2ccccc2[nH]1	-2%
N#Cc1ccccc1CSc1ccc(-c2nc3ccccc3[nH]2)cn1	3%
CSC(=S)N/N=C/c1c[nH]c2ccccc12	-1%
CN1CCN(C(=O)c2ccc(-c3nn(C)c(=O)c4ccccc34)cc2)CC1	3%
CCc1ccc(NC(=O)CSc2nc(C)c(C(=O)Nc3ccc(Cl)cc3)c(-c3ccc(OC)cc3)c2C#N)cc1	-4%
O=C(c1ccco1)N1CCN(c2cc(=O)n(C3CCCCC3)c(=O)[nH]2)CC1	-9%
CC(C)(C)OC(=O)C[C@H]1C/C=C\C[C@H](CC(=O)N[C@H](CO)Cc2ccccc2)C(=O)N2CCC[C@H]2COC1=O	4%
CCN(c1ccccc1)S(=O)(=O)c1ccc(C(=O)NCC(c2ccccc2OC)N2CCCC2)cc1 (centres undefined)	-2%
O=C1c2ccccc2C(=O)N1n1c(=O)[nH]c2ccccc2c1=O	12%
O=C(CN1CCN(S(=O)(=O)c2ccc(Cl)cc2)CC1)Nc1ccc(F)cc1F	-4%
Cc1cccc(-c2ocnc2C(=O)Nc2ccccc2NC(=O)c2ccccn2)c1	-13%
COc1ccc(N(C(=O)Cc2cccs2)C(C(=O)NC2CCCCC2)c2cccn2C)cc1 (centres undefined)	-1%
CCOC(=O)C1CCN(C(=O)COc2ccc(N(C)S(=O)(=O)c3ccc(C)cc3)cc2)CC1	10%
CCCCN1CC(COc2ccccc2)Oc2cccc(F)c2S1(=O)=O (centres undefined)	-9%
Nc1cc(=O)[nH]c(=S)n1-c1cccc(C(F)(F)F)c1	-8%
O=C(CSc1nnc(NC(=O)c2ccccc2[N+](=O)[O-])s1)NC1CCCC1	-1%
O=C(O)c1cccc2c1C(=O)c1ccc(-c3ccc(F)cc3OCc3ccccc3)cc1S2(=O)=O	-8%
CC1O[C@@H](OC2C(COC3OC(CO)C(O)[C@H](O)C3O)OC(OC3CC[C@]4(C)C(CC[C@@]5(C)[C@@H]4CC=C4[C@@H]6CC(C)(C)CC[C@]6(CO)C(O)C[C@]45C)C3(C)C)C(O)C2O)C(O)C(O)C1O (some centres undefined)	-26%
CC(=O)c1cc2c(cc1NC(=O)Cc1c(C)noc1C)OCO2	-7%
COc1cc(/C=N/Nc2ccc([N+](=O)[O-])cc2S(=O)(=O)N2CCOCC2)cc(OC)c1OC	-21%
Cc1ccc(NS(=O)(=O)c2ccc3[nH]c(=O)c(=O)[nH]c3c2)cc1Cl	4%
Cn1c(SCc2ccccc2F)nc2cccnc21	7%
COCc1[nH]nc2c1C(c1ccnc3ccccc13)C(C#N)=C(N)O2 (centres undefined)	-5%
Cc1ccc(-c2nnc(CCC(=O)N(C)Cc3nccs3)o2)s1	4%
COc1ccccc1NC(=O)c1cc2c(s1)-c1ccccc1S(=O)(=O)C2	21%
O=C(c1cc(-c2ccc(Cl)cc2)n[nH]1)N1CCN(S(=O)(=O)c2ccc(Br)s2)CC1	6%
COc1ccc(-c2nc3ccc(NC(=O)CO)cc3c(=O)n2Cc2cccc(Cl)c2)cc1COc1ccc(NC(C)=O)cc1	-15%
Cc1ccc(NC(=O)CSc2ncn[nH]2)cc1S(=O)(=O)N1CCOCC1	10%
O=C(CC(=O)Nc1ccccc1)Nc1ccccc1	-9%
CCCC(=O)Nc1nnc(S(=O)(=O)N(C)Cc2ccco2)s1	u
COc1cc(NC(=O)C2CC(=O)NC3=C2C(=O)CCC3)cc(OC)c1 (centres undefined)	-2%
Cc1cc(CN2C(=O)c3ccccc3C2=O)on1	12%
Cc1ccc(/C=C2/NC(=O)N(Cc3ccccc3F)C2=O)s1	-6%
CC(=O)Nc1ccc(Cc2nc3ccccc3[nH]2)cc1	-3%
Cc1ccc(/C=C(\NC(=O)c2ccccc2)C(=O)NCCN2CCOCC2)o1	-4%
CCC/C(O)=C1\C(=O)CC(C)(C)CC1=Nc1ccc(OC)cc1OC	10%
